Compound activity as filed in PubChem.
Mtb growth: M. tuberculosis H37Rv growth inhibitors, H37Rv strain (AID 1626); M. tuberculosis H37Rv growth inhibition; higher % means a stronger effect; inhibition, % at 10 µM; hits with a dose series show IC50 in µM; 220,000 tested, 0.95% active;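 active = confirmed in a dose series; inconclusive = inhibition above 80% but not taken into the dose series; inactive = below 80% or under 30% at every dose of the series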;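 also: bacteria incubated seven days before Alamar blue readout; 0% = bacteria only wells and 100% = bacteria with antibiotic wells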
RecA splice inh: Mtb RecA intein splicing inhibitors, primary screen, biochemical, fluorescence, HTS; inhibition, %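 (about 9 µM by stock and volumes)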; Protein RecA (Mycobacterium tuberculosis (strain ATCC 25618 / H37Rv)), P9WHJ3; cell-free RecA intein splicing; 290,000 tested, 0.75% active; in the data active = inhibition above about 30%; inconclusive = no clear call, values can overlap the other calls;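 also: 0% = vehicle wells and 100% = reference inhibitor control wells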
Target sequence (P9WHJ3 whole entry, looked up, canonical isoform): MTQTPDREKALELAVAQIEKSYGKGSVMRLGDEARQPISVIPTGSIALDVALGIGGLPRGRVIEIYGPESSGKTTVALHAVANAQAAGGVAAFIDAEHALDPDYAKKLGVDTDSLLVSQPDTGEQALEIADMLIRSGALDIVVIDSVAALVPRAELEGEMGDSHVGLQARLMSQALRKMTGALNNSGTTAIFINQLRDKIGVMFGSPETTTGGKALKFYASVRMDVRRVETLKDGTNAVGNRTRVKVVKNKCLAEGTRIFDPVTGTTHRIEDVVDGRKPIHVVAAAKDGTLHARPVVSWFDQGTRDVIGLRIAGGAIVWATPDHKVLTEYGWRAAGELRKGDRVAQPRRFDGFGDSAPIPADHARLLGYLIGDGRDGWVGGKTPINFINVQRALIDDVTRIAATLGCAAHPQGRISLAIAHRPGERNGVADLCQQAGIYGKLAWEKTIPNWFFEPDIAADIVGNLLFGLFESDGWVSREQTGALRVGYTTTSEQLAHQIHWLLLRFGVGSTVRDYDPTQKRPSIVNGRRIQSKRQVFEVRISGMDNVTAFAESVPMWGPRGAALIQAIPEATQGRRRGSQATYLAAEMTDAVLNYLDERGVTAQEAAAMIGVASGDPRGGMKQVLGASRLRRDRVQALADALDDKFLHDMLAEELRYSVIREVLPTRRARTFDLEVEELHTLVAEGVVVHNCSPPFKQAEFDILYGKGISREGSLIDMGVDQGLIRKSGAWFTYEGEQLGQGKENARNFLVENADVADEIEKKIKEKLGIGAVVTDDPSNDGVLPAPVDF
YopH inh: YopH tyrosine phosphatase inhibitors, primary screen, biochemical, fluorescence Ex485/Em525. YopH tyrosine phosphatase [Yersinia enterocolitica]. inhibition, %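 (about 10 µM by stock and volumes)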. 140,000 tested, 0.16% active. AID 898, 2007;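 active = inhibition of 50% or more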;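 also: controls were vehicle for no effect and minimum signal wells for full effect; inactives centre near -20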
Mtb bLac sens: beta-lactam sensitization of Mtb H37Rv, H37Rv; M. tuberculosis H37Rv growth with meropenem, percent inhibition; hits of this screen are not shown here; inhibition, % at 25 µM; 330,000 tested, 0.27% active; AID 434955, 2010;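 active = about 74% or more and at least 40 points above the plate without the antibiotic, then above 30% in a dose series; inconclusive = first-round hits that could not be retested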;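 also: growth measured after seven days incubation then overnight dye step; 0% = bacteria only wells and 100% = bacteria with antibiotic; twin plates without the antibiotic show which effects depend on it; some results filed as inactive read as strong as hits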
Arbovirus anti: antivirals against arbovirus infection, primary screen, cell-based, full library, 10K replicate subset; arbovirus infection cell-based antiviral screen; inhibition, % at 10 µM; 200,000 tested, 0.37% active; AID 1251, 2008;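 active = inhibition from about 30%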;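 also: bluetongue infection of BSR cells; cell survival read as ATP light after 72 h; 0% = infected wells without compound and 100% = uninfected wells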
Arbovirus anti repeat: recorded beside Arbovirus anti, whose call it bears; inhibition, %; measured here: 10K subset replicate screen; many hits read low in the repeat;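 first of two repeat runs on a subset; 0% = infected and 100% = uninfected wells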
* hit, by the source's call; u = inconclusive; x = not tested or not shown; & = joins results of further samples.

SMILES	Mtb growth	RecA splice inh	YopH inh	Mtb bLac sens	Arbovirus anti	others
Clc1ccc(CSC(Cn2ccnc2)c2ccc(Cl)cc2Cl)cc1 (stereo unspecified)	u	41.7*	-23.1	94.6	-43.5
COCCNC(=O)c1nc2ccccc2s1	-2.4%	-1.2	-17.2	-6.5	-1.8
O=C(Oc1ccc2ccc(OC(=O)N3CCOCC3)cc2c1)N1CCOCC1	-11.1%	-0.8	30.1	-12.7	2.1	Arbovirus anti repeat=-1.5
COc1ccc(CNC(=O)C/C(C)=N/NC(=O)COc2ccc(C)cc2Br)cc1	-0.8%	0.8	x	-1.0	-18.2
CCOC(=O)N1CCN(c2nc(C)cc(C(F)(F)F)n2)CC1	-10.4%	-43.4	-27.6	u	-2.6	Arbovirus anti repeat=-2.1
CCOC(=O)C1(O)CC(C)=NN1C(=O)c1cccc(Cl)c1 (stereo unspecified)	-5.7%	-0.2	-8.1	7.7	-0.6
CC(=O)N1CCCc2cc(S(=O)(=O)CCC(=O)N3CCN(c4ccccc4)CC3)ccc21	-2.9%	-5.6	-45.3	-2.8	15.0
CC(C)(C)OC(=O)NNC(=O)c1cccs1	3.4%	-6.1	x	5.6	-2.5
CC1CCN(C(=O)CCNS(=O)(=O)c2ccc3c(c2)c(=O)n(C)c(=O)n3C)CC1	x	0.8	x	-2.1	x
Cc1ccc(S(=O)(=O)NC(=O)N2CCN(Cc3c(F)cccc3Cl)CC2)cc1	7.6%	0.5	x	-13.3	x
Cn1ccnc1SCC(=O)Nc1cc(C(F)(F)F)ccc1N1CCOCC1	0.6%	-0.9	-29.6	x	6.4
CCN(Cc1cc2ccccc2[nH]c1=O)S(=O)(=O)c1ccc(OC)cc1	x	-1.7	x	5.7	x
CCOC(=O)c1c(-c2ccc(OC)cc2)nc2nonc2c1N	4.8%	-3.6	-30.2	-1.3	-1.5
O=C(NC1CC1)C1=C[C@@H](c2ccc(C(F)(F)F)cc2)C[C@@H](OCc2ccc(CO)cc2)O1	-2.3%	0.6	x	-5.0	x
CCCS(=O)(=O)N1CCC(Cc2ccc(OC)cc2)(C(=O)OCC)CC1	0.6%	2.0	x	-0.6	1.1
O=C(Oc1ccc2c(=O)c(Oc3ccc4ccccc4c3)coc2c1)c1cccnc1	1.1%	8.7	-0.1	-1.4	9.1
Cc1ccc(OCCn2c(C)c(/C=N/n3cnnc3)c3ccccc32)cc1	-1.4%	-0.9	3.2	2.4	-2.7	Arbovirus anti repeat=-2.5
Cc1ccccc1-n1c(O)c(C(c2ccncc2)c2c(O)n(-c3ccccc3C)c(=O)[nH]c2=O)c(=O)[nH]c1=O	-3.6%&-7.9%	-2.7&1.1	x	-0.8&8.1	x
CC(Sc1nnc(-c2ccccc2F)n1C1CC1)C(=O)NC(N)=O (stereo unspecified)	x	-0.2	x	6.7	x
O=C1Nc2ccc(Cl)cc2/C1=C/C1CC=CCC1 (stereo unspecified)	8.8%	0.3	-25.1	-5.5	-10.6
Cc1ccc(NC(=O)[C@@H]2CCC(=O)N2C2OC(=O)c3ccccc32)cc1Cl (stereo partly specified)	x	5.7	x	-14.9	x
CN1C(=O)N(C)C2CC1N(C)C(=O)N2C	-12.3%	-0.5	-10.2	-5.0	2.1
O=c1nc(/C=C/c2cccn2-c2ccc([N+](=O)[O-])cc2)cc(C(F)(F)F)[nH]1	1.6%	5.9	x	7.2	10.9
C=CCN1C(=O)C2(OCCCO2)c2cccc(Cl)c21	x	-0.8	x	-1.2	x
COc1ccccc1CN1CC(C(=O)N2CCOCC2)CCC1=O (stereo unspecified)	x	-1.6	x	-6.5	x
COC(=O)/C(=C\c1ccc(O)cc1)c1nc2ccccc2[nH]1	5.3%	-9.1	x	-5.8	15.7
CCNC(=O)N1CCC(n2nccc2NC(=O)CCOc2ccccc2)CC1	x	0.8	x	4.2	x
O=C(NCCc1ccccc1)C1CCCN1S(=O)(=O)c1ccc(F)cc1 (stereo unspecified)	2.8%	-0.3	-4.9	3.3	x
CCC(=O)N1CCN(c2nc(CC)nc3sc4c(c23)CCCC4)CC1	x	1.1	x	-8.9	x
COc1ccc(S(=O)(=O)N2CC(C(=O)O)Oc3ccc(Cl)cc32)cc1 (stereo unspecified)	x	1.1	x	8.4	x
CN1/C(=C/C(=O)CSc2ccccc2C(=O)O)C(C)(C)c2ccccc21	-10.2%	-3.3	x	-4.8	x
O=C(O)c1ccc(-c2nnc(-c3ccccc3)o2)cc1	x	-0.6	x	1.0	x
Cc1ccc(CNc2cc(C(=O)O)ccc2C)s1	x	-0.6	x	-3.8	x
Cc1ccc(C(=O)Nc2cccc(C(O)c3ccccc3)c2)cc1 (stereo unspecified)	x	3.4	x	0.7	x
Cc1ccc(S(=O)(=O)c2nc(S(C)(=O)=O)sc2N2CCOCC2)cc1	x	6.0	x	-0.4	x
c1ccc(C2=NNC(=NCc3ccc4c(c3)OCO4)SC2)cc1	6.9%	6.8	-29.7	-5.0	-5.6
Cc1cc(C)n(CCC(=O)N/N=C/c2ccc(O)cc2)n1	-1.5%	0.2	-13.2	u	-3.1
CC(Nc1nc(-c2ccc(F)cc2)cs1)c1nc2cc(Cl)c(N3CCCCC3)cc2n1CCOCCO (stereo unspecified)	19.6%	3.6	x	86.8	x
CCC(C)c1ccc(O)c(N)c1 (stereo unspecified)	-13.3%	-2.8	-32.8	5.2	3.8
CCN1CCN(CCCNC(=O)CS(=O)(=O)Cc2nc(-c3ccccc3C)oc2C)CC1	x	2.1	x	-5.3	x
COc1ccc(OC)c(C(c2nnnn2C(C)(C)C)N2CCc3ccccc3C2)c1 (stereo unspecified)	3.6%	11.6	9.6	-2.4	-9.9
COc1ccccc1CC(=O)NNS(=O)(=O)c1ccc([N+](=O)[O-])cc1	-3.7%	-2.2	x	5.0	3.5
CCN(CC(=O)Nc1ccc(NC(C)=O)cc1)C(=O)CSCc1c(C)noc1C	x	-0.1	x	2.7	x
CC(Oc1ccc(F)cc1)C(O)CCN(C)C (stereo unspecified)	-2.6%	-3.1	x	1.3	0.9
O=c1ccc(Cc2ccc(Cl)cc2)n[nH]1	-3.3%	0.1	x	2.6	-0.4
Cc1noc(C)c1C(=O)Nc1nc2ccc(S(C)(=O)=O)cc2s1	x	-2.7	x	-19.4	x
C/C(=C\C(=O)N1CCc2ccccc21)C(=O)O	-8.3%	-0.7	-41.5	-5.7	1.9
Cc1cc([N+](=O)[O-])nn1CC(=O)N(C)Cc1ccccc1	x	-2.4	x	-6.4	x
Cc1ccc(NS(=O)(=O)c2cc(C(=O)OCC(=O)NCC3CCCO3)ccc2C)cc1 (stereo unspecified)	3.9%	-1.0	x	-3.0	18.5
Fc1ccc(N2CN(Cc3cccnc3)CNC2=S)cc1	-9.3%	-0.2	x	-10.4	x
CCOc1ccc(Cc2n[nH]c(=S)n2Cc2ccccc2)cc1	4.9%	-0.2	x	3.1	6.2
Cc1c(N2C(=O)CSC23C(=O)Nc2ccccc23)c(=O)n(-c2ccccc2)n1C (stereo unspecified)	-13.3%	1.6	-2.4	0.1	0.2	Arbovirus anti repeat=-1.2
COc1ccc(NC(=S)N/N=C/c2cccn2Cc2ccccc2F)cc1	-0.6%	6.3	x	-14.1	-7.1
COc1ccc(CCNC(=O)CCNC(=O)c2ccc(Br)cc2)cc1OC	-3.8%	-4.5	-33.8	-3.7	2.2
CC(=O)Nc1ccccc1NC(=O)C(F)(F)F	-1.6%	-2.1	10.8	-6.9	9.6	Arbovirus anti repeat=3.0
NC12CC3CC(C1)CC(O)(C3)C2	12.9%	-1.1	2.5	-4.0	2.9
CCn1cc(C(=O)NCC(OC)OC)c(=O)c2cc(S(=O)(=O)N3CCCC3)ccc21	x	-1.2	x	1.1	x
COc1ccc(CNC(=O)CCn2cccc2)cc1	x	1.8	-12.8	-4.8	6.8
O=S(=O)(c1ccc(Br)s1)N1CCN(c2ncccn2)CC1	-2.4%	-1.7	-14.8	-8.1	7.5
CNC(=S)Nc1cccc(C(=O)OC)c1	x	1.0	x	-0.1	x
(listing goes on)
SMILES	Mtb growth	RecA splice inh	YopH inh	Mtb bLac sens	Arbovirus anti	others
CN(CC(O)CON=C1c2ccccc2-c2ccccc21)S(=O)(=O)c1ccc(Br)cc1 (stereo unspecified)	14.8%	16.9	-16.5	1.3	-16.6
Cc1ccc(S(=O)(=O)N(Cc2cc3cccc(C)c3[nH]c2=O)c2ccccc2)cc1	-1.6%	2.2	-15.3	-6.1	-20.4
COc1cc(Br)c(CNCCc2ccc3c(c2)OCO3)cc1OC	x	-0.6	x	-0.2	x
Cc1cc(/C=C2/SC(=O)N(CC(=O)N3CCCC3)C2=O)c(C)n1C	x	0.6	x	1.0	x
C/C(=N/NS(=O)(=O)c1ccccc1)c1ccc(NC(=O)C(F)(F)F)cc1	-0.5%	-2.9	-21.1	-1.0	-3.4
CCCCN1C(=S)NC[C@@H]1Cc1cccc2ccccc12	0.5%	4.9	x	-6.8	x
NC(=O)CN1CCOCCOCCN(CC(N)=O)CCOCC1	-0.6%	0.3	-14.0	3.3	1.6
COC(=O)CCC(=O)Nc1nc(-c2ccccc2)cs1	5.5%	0.3	-43.8	-9.0	-1.8	Arbovirus anti repeat=3.5
O=C(/C=C/c1ccc(Cl)cc1)Nc1ccc(N2CCCCC2)cc1	-2.6%	-0.7	-44.9	6.6	7.4
COc1ccc(N(CC(=O)NCCSc2ccccn2)S(C)(=O)=O)cc1	-19.2%	-4.0	-6.2	7.0	0.5
O=C(COc1cccc2c1CCN(Cc1ccccc1)C2=O)N1CCCCC1	4.9%	4.1	x	-8.7	-24.0
CCOC(=O)C1=C(COC(=O)CCNS(=O)(=O)c2ccc(NC(C)=O)cc2)NC(=O)NC1C (stereo unspecified)	x	-3.1	x	-11.8	x
CC(C)CN(CC(C)C)c1nc(N)c(C#N)c(CC#N)c1C#N	9.6%	-4.3	16.4	-6.6	3.8
COc1ccccc1NC(=O)CCC(=O)OCC(=O)c1ccc(C)c([N+](=O)[O-])c1	x	1.8	x	3.4	x
Cc1ccc(CNC(=O)CN(C(=O)C2(C)CC(=O)N=C3C=CC=CN32)c2cccc(C)c2C)cc1 (stereo unspecified)	x	1.4	x	9.9	x
COc1cc(CN2CCN(c3ccccc3F)CC2)cc(OC)c1O	4.8%	-3.3	-17.3	-8.7	3.1
O=C(CCCCn1c(=O)c2ccccc2n(CC(=O)Nc2cccc(F)c2)c1=O)NCc1ccco1	3.0%	-1.2	-50.7	-0.5	-0.4
Nc1ccc(C(=O)Nc2ccccc2C(=O)O)cc1	16.0%	-1.7	-32.3	1.2	9.2
O=C(Cc1ccc(F)cc1)N1CCC(CC2CC(c3cccc(Br)c3)=NO2)(C(=O)NCC2CCCCC2)CC1 (stereo unspecified)	x	3.6	x	3.5	x
COc1ccc(-n2c3c(cc(C(=O)NNc4ccccc4C)c2=O)C(=O)CC(C)(C)C3)cc1	22.5%	-2.0	x	-2.0	-19.9
CC(C)(C)c1ccc(-c2noc(-c3ccc4c(c3)CCO4)n2)cc1	10.1%	3.6	x	65.2	x
COc1ccc(-c2cc(C(F)F)n3ncc(C(=O)Nc4cccc(S(=O)(=O)N5CCOCC5)c4)c3n2)cc1	6.3%	-2.8	x	-5.7	-6.3
COc1ccc(C(=O)/C(C#N)=N/Nc2cccc([N+](=O)[O-])c2)cc1	0.2%	4.1	x	x	-2.8
CCC(C)n1c(SCC(=O)/C(C#N)=C(\C)N)nc2ccccc2c1=O (stereo unspecified)	9.9%	1.5	-31.7	6.5	-19.1

Fetched one by one from the list above, 7 records:
SMILES	Mtb growth	RecA splice inh	YopH inh	Mtb bLac sens	Arbovirus anti	others
O=C(CCCCn1c(=O)c2ccccc2n(CC(=O)Nc2cccc(F)c2)c1=O)NCc1ccco1	3.0%	-1.2	-50.7	-0.5	-0.4
O=C(Cc1ccc(F)cc1)N1CCC(CC2CC(c3cccc(Br)c3)=NO2)(C(=O)NCC2CCCCC2)CC1 (stereo unspecified)	x	3.6	x	3.5	x
CCC(C)n1c(SCC(=O)/C(C#N)=C(\C)N)nc2ccccc2c1=O (stereo unspecified)	9.9%	1.5	-31.7	6.5	-19.1
Nc1ccc(C(=O)Nc2ccccc2C(=O)O)cc1	16.0%	-1.7	-32.3	1.2	9.2
COc1ccc(-n2c3c(cc(C(=O)NNc4ccccc4C)c2=O)C(=O)CC(C)(C)C3)cc1	22.5%	-2.0	x	-2.0	-19.9
COc1cc(CN2CCN(c3ccccc3F)CC2)cc(OC)c1O	4.8%	-3.3	-17.3	-8.7	3.1
CC(C)(C)c1ccc(-c2noc(-c3ccc4c(c3)CCO4)n2)cc1	10.1%	3.6	x	65.2	x

Only part of the results is shown (hit frequency here may not be typical).
